Prx2 Sm inh: Schistosoma Mansoni Peroxiredoxins (Prx2). S. mansoni Prx2 activity coupled to TGR/GSH (TGR is thioredoxin glutathione reductase), NADPH fluorescence loss, qHTS; some inactives read as strong as hits. Potency, µM. hit rate 0.07% among 65,000; active means full or partial inhibition curve with a strong effect at the top dose; inconclusive means weaker partial or single-point curve; inactive means no accepted curve; also: series up to 57 µM; many of its hits are not listed in these tables
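Prx2 activity was followed as the loss of NADPH fluorescence (ex 365/em 450 nm), read every 30 sec for 8 min after H2O2 start. The enzyme mix (50 nM Prx2, 25 nM TGR, GSH, NADPH; pH 7.4 phosphate buffer) was incubated with compound for 15 min at room temperature first.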
LT uptake inh: qHTS Assay for Anthrax Lethal Toxin Internalization; Cells, anthrax lethal toxin internalization, FRET ratio (460/530); Potency, µM (highest dose often 40 µM), inactives show top-dose activity change, negative = inhibition, most hits filed as inhibitors; hit rate 0.67% among 70,000; active = well fitted falling ratio curve with the 530 nm signal flat; inconclusive = other ratio curves, or a change in one channel alone; inactive = flat curves in the ratio and both channels; the % refers to the ratio; also: % is scaled to controls: 0 for no effect and ±100 for the full control effect; nearly all actives have a fitted effect of over 50% in size; tested in ME-180 cells; beta-lactamase reporter
* = called active by the depositor; ? = inconclusive; nt = not tested or not shown; [ ] = remark or other dose. Potency is read from the fitted curve at half-maximal effect. This is a subset; count on the stated rates, not on these rows.

Order of results: Prx2 Sm inh, LT uptake inh
CCC/C=C(\CCC)C(NS(=O)(=O)c1cccc2cccnc12)c1ccc(C(=O)OC)cc1 (configuration not stated)
  >57, -11.1%
CCOC(=O)c1cc(CC)sc1NC(=O)COC
  >57, ?
CCc1[nH]nc2c1C(c1cccnc1)C(C#N)=C(N)O2 (configuration not stated)
  >57, 7.2%
CC(=O)c1c(N)n(C)c(=O)n(C)c1=O
  >57, -14.6%
Cc1ccc(S(=O)(=O)Cc2ccc(C(=O)N3CCN(Cc4ccccc4)CC3)o2)cc1
  >57, -19.4%
COc1ccccc1OCc1nc(Cc2ccc(Cl)cc2)no1
  >57, -25.2%
Cc1occc1-c1nnc(SCC(=O)N2CCOCC2)n1Cc1ccco1
  >57, -0.3%
CCOc1ccc(NC(=O)CSc2n[nH]c(=O)n2-c2ccccc2)cc1
  >57, -11.0%
COc1ccc(NS(=O)(=O)c2cccc(C(=O)O)c2)cc1
  >57, -1.2%
COc1ccc(NC(C)=O)cc1NC(=O)CN1CCN(CC(=O)Nc2ccc(Cl)cc2)CC1
  >57, 6.9%
CCOC(=O)c1[nH]c(C)c(C(=O)N2CCc3ccccc32)c1C
  >57, ?
O=c1cc(C(F)F)oc2c1ccc1ccccc12
  nt, -9.1%
C(=N\c1nc2ccccc2n1CCN1CCCCC1)/c1cccs1
  >57, 2.4%
Cc1ccc(C)c(N2CCN(C(=O)c3cc4ccccn4n3)CC2)c1
  >57, -14.9%
CN(C)c1nc2ccc(OCCN3CCCCC3)cc2s1
  nt, -8.9%
NC(=O)c1csc(-c2ccc(CO)o2)n1
  >57, 0.0%[8 µM]
COC(=O)c1cccc(C(=O)Nc2ccc(C)cc2Br)n1
  >57, ?
CN1CCN(CCCNC(=O)Nc2cccc3ccccc23)CC1
  >57, 1.8%
O=C(CCS(=O)(=O)c1cccs1)NC1CCCCCC1
  >57, -5.1%
Clc1ccc(-c2nnc(NC3=NCCCCC3)o2)cc1
  >57, ?
O=C(CCC(=O)c1cccs1)Nc1nnc(C2CC2)s1
  >57, 7.6%
C[C@@H]1CC[C@@]2(OC1)O[C@H]1[C@@H](O)[C@H]3[C@@H]4CC[C@H]5C[C@@H](O[C@@H]6O[C@H](CO)[C@H](O[C@@H]7O[C@H](CO)[C@@H](O)[C@H](O[C@@H]8OC[C@@H](O)[C@H](O)[C@H]8O)[C@H]7O[C@@H]7O[C@H](CO)[C@@H](O)[C@H](O[C@@H]8O[C@H](CO)[C@@H](O)[C@H](O)[C@H]8O)[C@H]7O)[C@H](O)[C@H]6O)[C@H](O)C[C@]5(C)[C@H]4CC[C@]3(C)[C@H]1[C@@H]2C
  nt, ?
CC1(C)Cc2noc(N)c2C(C)(C)N1O
  >57, 5.8%
COc1ccc(-c2cc3nc4n(c(=O)c3s2)CCC4)cc1
  >57, -3.1%
Cn1cc(C(=O)C(=O)N[C@H]2CN3CCC2CC3)c2ccccc21
  >57, ?
O=c1c2ccccc2c2ccccc2c(=O)n1-c1cc2c3ccccc3ccc2c2ccccc12
  >57, ?
CC(C)CCn1c(=O)c2ccccc2n2c(COC(=O)c3ccc(S(=O)(=O)N(C)C)cc3)nnc12
  >57, 1.3%
CC(C)(C)Cc1nc(-c2ccccn2)no1
  >57, 7.9%
O=C(Nc1ccccc1C(=O)NCc1ccccc1)c1ccco1
  >57, -22.0%
O=C(N1CCCCC1)C1(c2ccccc2)CCOCC1
  >57, -6.6%
COc1ccc(N(CC(=O)Nc2cccc(C(=O)O)c2)S(=O)(=O)c2c(C)noc2C)cc1
  >57, 3.3%
Cc1nnc(SCC(=O)Nc2ccc(S(=O)(=O)N3CCCC3)cc2)n1N
  >57, 6.1%
O=C(Cn1c(=O)[nH]c2ccsc2c1=O)N1CCN(c2ccc(F)cc2)CC1
  >57, 2.5%
CC1CCCC(NC(=O)CSc2ncccc2C(=O)O)C1C (configuration not stated)
  >57, -5.3%
O=C(Nc1cccc(-c2nc3cc(Cl)ccc3o2)c1)C1CCCO1 (configuration not stated)
  >57, -14.3%
COC(=O)CN(c1cccc(C(C)=O)c1)S(C)(=O)=O
  >57, -10.5%
CC(C(=O)NCc1ccc2c(c1)OCO2)N(c1ccccc1)S(C)(=O)=O (configuration not stated)
  >57, -21.7%
NCCC[C@@H](CC(=O)N[C@@H]1CCCC[C@H]1C(=O)N[C@H](CC(=O)N[C@@H](CCC(=O)O)CC(=O)O)Cc1ccccc1)NC(=O)C[C@H](Cc1c[nH]c2ccccc12)NC(=O)[C@@H]1CCCC[C@H]1N
  >57, -22.5%
COc1ccccc1CCn1c(=O)c(-c2ccccc2)nc2cncnc21
  >57, -11.0%
CC1(N2CCCCC2)CC2(O)C(=[N+]1[O-])CCC/C2=N\O (configuration not stated)
  >57, -17.9%
Cc1noc(C)c1-c1cncnc1NCCN1CCOCC1
  >57, ?
Cc1onc(-c2ccccc2)c1C(=O)Nc1ccc(OC(C)C)cc1
  >57, -9.1%
CC1CCCC(C)N1Cc1cn2ccccc2n1 (configuration not stated)
  >57, -23.0%
Cc1ccc2cc(C#N)c(NCc3ccco3)nc2c1
  >57, 6.0%
N#Cc1c(-c2ccccc2)no[n+]1[O-]
  8.68*, -5.2%
Cc1cc(NC(=O)C2CCCN(S(=O)(=O)c3c(C)noc3C)C2)no1 (configuration not stated)
  >57, -4.9%
O=c1c2ccccc2[nH]c(=S)n1CCN1CCN(Cc2ccccc2)CC1
  >57, -1.9%
COc1ccc(-c2nc3cncnc3n(-c3ccccc3)c2=O)cc1
  >57, ?
CCn1c(=O)cc(OCC(=O)Nc2ccccc2N2CCN(C)CC2)c2ccccc21
  >57, -10.8%
Oc1cc(Cl)c(Cl)c(Cl)c1
  nt, 12.6µM*
c1cc(CSc2ncnc3nc[nH]c23)ccn1
  >57, 0.5%[8 µM]
COc1cc(C(=O)NCC(c2ccco2)N2CCCC2)ccc1OCc1c(C)noc1C (configuration not stated)
  >57, ?
COc1ccc(C(=O)C(CN2CCOCC2)c2ccccc2)cc1F (configuration not stated)
  >57, 15.8µM*
O=C(C1=C(O)C(=O)N(CC2CCCO2)C1c1cccnc1)c1ccco1 (configuration not stated)
  >57, 10.7%
CN(C)S(=O)(=O)c1cccc(C(=O)OCC(=O)Nc2ccccc2OC(F)F)c1
  >57, -12.0%
CC(C(=O)NC1CCCC1)N(Cc1ccco1)C(=O)c1snc(C(=O)NC2CCCC2)c1N (configuration not stated)
  >57, ?
CCOc1cc(N2CCOCC2)c(OCC)cc1NC(=O)Cc1ccc(OC)c(OC)c1
  >57, -1.1%
CCc1cccc2c3c([nH]c12)[C@](CC)(CC(=O)O)OCC3
  >57, 4.9%
O=C(Nc1nnc(-c2ccccc2)o1)Nc1ccccc1Cl
  >57, 8.0%
CCOC(=O)N1CCN(C(=O)CCc2c(C)nc3c(c(C)nn3-c3ccc(C)c(C)c3)c2C)CC1
  >57, -19.0%

Continuation.
Order of results: Prx2 Sm inh, LT uptake inh
CC(=O)NC1CSCC1OC(C)=O (configuration not stated)
  >57, -1.1%
C[C@@H]1O[C@@H](OC[C@@H]2O[C@@H](Oc3c(-c4ccc(O)c(O)c4)oc4cc(O)cc(O)c4c3=O)[C@H](O)[C@H](O)[C@@H]2O)[C@H](O)[C@H](O)[C@@H]1O
  >57, -19.1%
COc1ccc(C(=O)N2CCC3(CCN(C(=O)Nc4cccc(F)c4)CC3)CC2)cc1
  >57, -5.7%
COc1ccc(CNC(=O)CN(c2cc(C)cc(C)c2)S(=O)(=O)c2c(C)noc2C)cc1
  >57, -11.2%
CC1(C)C2CC=C(CN3CCC(O)CC3)C1C2 (configuration not stated)
  >57, -5.2%
CC(C)(C)c1ccc(Cn2nnc3c(=O)[nH]c(C4CCCN(C(=O)Cc5cccs5)C4)nc32)cc1 (configuration not stated)
  >57, -24.0%
CC1=C(C(=O)Nc2ccc(F)cc2)C(c2cccc(C)c2)n2nc(CCCO)nc2N1 (configuration not stated)
  >57, -20.0%
CCCCN=CC1=C(O)C(C(=O)OC)C(C)(C)CC1=O (configuration not stated)
  nt, 12.0%
C=C(C)Cn1c(CCNC(=O)C(C)(C)C)nc2ccccc21
  >57, 7.1%
Cc1nc2sc(C(c3ccco3)N3CCN(c4ccccc4)CC3)c(O)n2n1 (configuration not stated)
  >57, 14.0%
COc1ccc2c(c1)C(=NO)c1cc(OC)ccc1-2
  >57, ?
COc1ccc(NC(=O)CSc2nc3c(c(=O)n2-c2ccc(F)cc2)SCC3)c(OC)c1
  >57, 3.6%
Cc1cc(C(=O)CSc2nnc(-c3cccc(F)c3)n2N)c(C)n1Cc1ccc2c(c1)OCO2
  >57, -14.4%
Cc1ccc2[nH]c(-c3ccccc3)cc(=O)c2c1
  nt, -33.4%
N#Cc1nc(-c2ccc(F)cc2)oc1NCCN1CCOCC1
  >57, -1.4%
CCCCOc1ccccc1C(=O)NCC(=O)O
  >57, -12.9%
COc1ccc(OC)c(-c2nnc(SCC(=O)NC3CCCCC3)o2)c1
  >57, -8.1%
Cc1nc(NCCO)c2nnn(Cc3ccccc3F)c2n1
  >57, -2.5%
O=C(O)c1ccc(S(=O)(=O)Cc2ccccc2)cc1
  >57, -16.0%
O=C(Nc1ccc(C(F)(F)F)cc1)C1CCCN1S(=O)(=O)c1cccc2cccnc12 (configuration not stated)
  >57, -22.9%
CSc1ccccc1C(=O)NCc1ccc2c(c1)OCO2
  >57, 12.9%
CCC(C)NC(=O)CCC(=O)Nc1ccc2nc(N3CCOCC3)cc(C)c2c1 (configuration not stated)
  >57, 6.4%
O=C(CSc1ncccn1)NCCc1ccccc1
  nt, 11.1%
COc1cccc(-c2nnn(CC(=O)O)n2)c1
  >57, 7.6%
CCCc1cc(N2CCCC(C(=O)Nc3ccc(OC)cc3OC)C2)n2ncnc2n1 (configuration not stated)
  >57, -0.3%
Cc1cc(=O)n(-c2ccc3ccccc3n2)[nH]1
  >57, ?
O=C(NCc1cccs1)[C@@H]1CSC2c3ccccc3C(=O)N21 (some centres not stated)
  nt, -1.5%
CC1CCCC(C)N1C(=O)c1cc(-c2ccc(Cl)c(Cl)c2)on1 (configuration not stated)
  >57, -8.7%
CCN(CC)C(=O)Cn1ncc2c1-c1ccccc1OC2
  >57, 5.8%
CCOCCCNC(=O)C(c1ccccc1)N(Cc1ccc2c(c1)OCO2)C(=O)CNC(C)=O (configuration not stated)
  >57, 2.2%

Gathered by group: those above containing a tert-butyl group (3)
Order of results: Prx2 Sm inh, LT uptake inh
CC(C)(C)Cc1nc(-c2ccccn2)no1
  >57, 7.9%
CC(C)(C)c1ccc(Cn2nnc3c(=O)[nH]c(C4CCCN(C(=O)Cc5cccs5)C4)nc32)cc1 (configuration not stated)
  >57, -24.0%
C=C(C)Cn1c(CCNC(=O)C(C)(C)C)nc2ccccc21
  >57, 7.1%

(next part)
Order of results: Prx2 Sm inh, LT uptake inh
CCc1ccccc1NC(=O)c1onc(C)c1Cl
  >57, ?
CCN1CCN(Cc2c(C)[nH]c3ccc(C(=O)OC)cc3c2=O)CC1
  >57, 0.9%
COc1ccc(Cl)cc1NC(=O)C1CCCN(S(=O)(=O)c2cccc3nonc23)C1 (configuration not stated)
  >57, -14.7%
CSc1nc(=O)n(-c2ccccc2)c(C)c1C(C)=O
  >57, -8.6%
O=C(c1ccco1)N1CCN(C(=O)c2cc3c(=O)oc4ccccc4c3s2)CC1
  >57, 6.5%
Cn1c(=O)n(C)c2cc(S(=O)(=O)N3CCCc4ccccc43)ccc21
  >57, ?
COC(=O)C1=C(C)n2nnnc2NC1c1cc2ccccc2o1 (configuration not stated)
  >57, ?
Cc1cc(C)nc(-n2c(Nc3ccccc3)cc(=O)c3c(C)n(-c4ccccc4)c(=O)nc32)n1
  nt, 5.0%
COc1ccc(NC(=O)C(C)NS(=O)(=O)c2ccc(NC(C)=O)cc2)cc1Cl (configuration not stated)
  >57, -4.2%
O=C1/C(=N/n2cnnc2)c2ccccc2N1Cc1ccccc1
  >57, -10.4%
CCC1=NC(c2ccccc2OC)N(O)C1(C)C (configuration not stated)
  nt, 7.6%
COCc1cc(C)nc2sc(C(=O)N3CCCC3)c(N)c12
  >57, -1.5%
CCN1CCCC1Cn1c(-c2ccccc2)nc2c(N(CCOC)CCOC)nc(C)nc21 (configuration not stated)
  nt, 7.8%
CC1CCN(C(=O)c2scc3c2OCCO3)CC1
  >57, 22.9%
COc1cc(NS(=O)(=O)c2ccc(NC(C)=O)cc2)cc(OC)c1
  >57, 22.3%
CCn1c(=O)n(CC(=O)NCc2ccccc2OC)c(=O)c2ccccc21
  >57, 9.0%
CCc1ccc2nc(NC(=O)CSCc3c(C)noc3C)sc2c1
  >57, -17.5%
O=c1[nH]c(NC2CCCCC2)nnc1Cc1ccccc1
  >57, 7.3%
COc1cc2c(cc1OC)C(c1ccc(C)o1)CC(=O)N2 (configuration not stated)
  >57, -0.6%
COc1ccc(N2C(=O)CC(Nc3ccc(N4CCOCC4)cc3)C2=O)c(OC)c1 (configuration not stated)
  >57, nt
Cc1ccc2c(C)c(C(=O)Nc3nnc(C)s3)oc2c1
  >57, 3.8%
